# Cruzain inh noDet = qHTS Assay for Promiscuous and Specific Inhibitors of Cruzain (without detergent). Cruzipain (Trypanosoma cruzi), P25779. purified cruzain, Z-FR-AMC fluorescence, no detergent. Potency, µM, for inactives: max response, negative = inhibition, most hits filed as inhibitors. hit rate 2.3% among 200,000. AID 1476, 2009;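 further: plate controls were enzyme without inhibitor for no effect and buffer without enzyme for full effect; nearly all actives have a fitted effect of over 40% in size; top concentration of the series not given in the record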
# Target sequence (P25779 123-467 limits assumed): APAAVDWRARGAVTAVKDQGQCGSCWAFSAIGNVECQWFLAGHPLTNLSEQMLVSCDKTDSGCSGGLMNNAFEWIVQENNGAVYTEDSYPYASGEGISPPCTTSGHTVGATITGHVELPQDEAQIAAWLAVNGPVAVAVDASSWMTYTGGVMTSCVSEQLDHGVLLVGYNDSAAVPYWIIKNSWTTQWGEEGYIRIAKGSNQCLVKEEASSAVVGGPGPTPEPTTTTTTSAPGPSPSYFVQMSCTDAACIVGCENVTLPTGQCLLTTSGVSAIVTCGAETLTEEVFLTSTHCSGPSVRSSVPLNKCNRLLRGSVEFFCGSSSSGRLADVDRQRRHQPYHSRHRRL
#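 Purified cruzain at 1.5 nM, pre-incubated 15 min with compound at room temperature in 100 mM sodium acetate pH 5.5, 5 mM DTT, 0.00005% Triton X-100. Reaction started with 2 uM Z-FR-AMC; AMC fluorescence increase over 60 s gives rate.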
# Lassa entry inh = qHTS for Inhibitors of binding or entry into cells for Lassa Virus; Lassa virus pseudotype entry inhibition, cell reporter; control for the full effect not named in the record; Potency, µM (titrated, usually from 37.9 µM), for inactives: at the highest dose activity change, negative = inhibition, actives largely listed as inhibitors; AID 540256, 2011; hit rate 1.2% among 300,000; active means well fitted inhibition curve with a large enough effect; inconclusive means small, poorly fitted or top-dose-only effect, or effect the other way; inactive means flat fitted curve, though single readings scatter; tested in HEK293 cells; further: on the % scale 0 is the no-effect control and ±100 the full control effect; nearly all actives have a fitted effect of over 50% in size; luciferase read-out
# Cruzain Triton = qHTS Assay for Promiscuous and Specific Inhibitors of Cruzain (with detergent). Cruzipain (Trypanosoma cruzi), P25779. purified cruzain, Z-FR-AMC fluorescence, 0.01% Triton. Potency, µM, for inactives: max response, negative = inhibition, most hits filed as inhibitors. hit rate 0.43% among 200,000. AID 1478, 2009;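 further: plate controls were neutral wells for no effect and buffer without enzyme for full effect; nearly all actives have a fitted effect of over 40% in size; top concentration of the series not given in the record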
#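 Compounds were screened in titration against cruzain (1.5 nM) with 0.01% Triton X-100 to counter colloidal aggregation. Activity was the AMC fluorescence increase over 60 s after adding 2 uM Z-FR-AMC at pH 5.5.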
# NS1 function inh = qHTS Assay for Inhibitors of Influenza NS1 Protein Function; S. cerevisiae slowed by influenza A NS1, growth recovery by OD600; Potency, µM (highest dose often 46.1 µM), for the others: at the highest dose activity, positive = more growth; AID 2326, 2010; hit rate 0.4% among 270,000; active means well fitted rising curve with a large enough effect; inconclusive means small, poorly fitted or top-dose-only effect; inactive means no such curve, though single readings can be large or run the other way; further: nearly all actives have a fitted effect of over 50% in size
#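 Read-out: OD600 growth recovery of NS1-expressing budding yeast. Cells grown overnight at 30C in -URA glucose medium, washed, resuspended and diluted 1:100 in 2% galactose assay medium, pH 6.0. Same strain lacking NS1 served as positive control.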
# RE007 growth inh = qHTS Assay for Inhibitors of the HIV-1 protein Vpr; S. pombe RE007 Vpr strain, BacTiter-Glo ATP luminescence, 24 h; control for the full effect not named in the record; Potency, µM (series often up to 92.2 µM), for the others: at the top dose activity change, negative = less growth; hit rate 0.21% among 360,000; active = well fitted falling curve with a large enough effect; inconclusive = small, poorly fitted or top-dose-only effect; inactive = no such curve, though single readings can be large or run the other way;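 further: on the % scale 0 is the no-effect control and ±100 the full control effect; nearly all actives have a fitted effect of over 50% in size; the assay follows cell death caused by Vpr and the record does not say whether a fall means rescue or toxicity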
#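 Fission yeast RE007 carrying one integrated HIV-1 vpr copy, seeded at OD 0.01 in PMG+AL medium with 23 nL pinned compound. Grown 24 h at 30 degrees; viability read by BacTiter-Glo luminescence after 5 min.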
# MARV entry inh = qHTS for inhibitors of binding or entry into cells for Marburg Virus. AID 540276, 2011. Potency, µM (series often up to 37.8 µM), for the others: top-dose activity change, negative = inhibition, usual class: inhibitors. hit rate 1.8% among 300,000. Marburg virus pseudotyped entry inhibition, cell reporter; control for the full effect not named in the record; about a third of the inactives were read at about 46 µM; active = well fitted inhibition curve with a large enough effect; inconclusive = small, poorly fitted or top-dose-only effect, or effect the other way; inactive = flat fitted curve, though single readings scatter; tested in HEK293 cells; about a fifth of its hits are not listed in these tables; further: on the % scale 0 is the no-effect control and ±100 the full control effect; luciferase read-out
# SARS PLP yeast = qHTS of Yeast-based Assay for SARS-CoV PLP; AID 485353, 2010; Potency, µM (top dose mostly 32.9 µM), without a hit: at the highest dose activity, positive = growth rescue; S. cerevisiae expressing SARS-CoV PLpro, growth rescue; control for the full effect not named in the record; hit rate 0.19% among 330,000; active means well fitted rising curve with a large enough effect; inconclusive means small, poorly fitted or top-dose-only effect; inactive means no such curve, though single readings can be large or run the other way; further: 0% is about no effect; nearly all actives have a fitted effect of over 55% in size; growth read by luminescence after 48 h
# 2A StopGo = High Throughput Screening for Foot and Mouth Disease Virus Antivirals | human cells with a luciferase reporter of 2A StopGo recoding; control for the full effect not named in the record | AID 1159524, 2015 | Potency, µM (doses to about 57.9 µM), for inactives: at the top dose signal change, negative = less light | hit rate 1.2% among 410,000; active = well fitted falling curve with a large enough effect; inconclusive = small, poorly fitted or top-dose-only effect; inactive = no such curve, though single readings can be large or run the other way; tested in HEK293T cells; further: on the % scale 0 is the no-effect control and ±100 the full control effect; nearly all actives have a fitted effect of over 45% in size; luciferase light after 4 h
# An asterisk follows results filed as active; ? = inconclusive; . = no result given; [ ] = remark or other dose. Unless noted, the call rests on the fitted dose curve; in most records, active means well fitted curve in the direction sought with a large enough effect; inconclusive means small, poorly fitted or top-dose-only effect, or another doubt; inactive means no such curve, though single readings can be large; an effect the other way counts as inactive or inconclusive. Potency means the concentration at half of the fitted maximal effect.
SMILES,Cruzain inh noDet,Lassa entry inh,Cruzain Triton,NS1 function inh,RE007 growth inh,MARV entry inh,SARS PLP yeast,2A StopGo
COc1ccccc1N1CCN(C(=O)/C=C/c2ccco2)CC1,-3%,?,-4.2%,4%,2%,?,-5%,20%
CC12CN(NC(=O)c3ccc(Cl)cc3)C3(C#N)CC1CCC23C (centres undefined),.,22%,.,4%,3%,-1%,0%,44%[activator]
COc1ccc(S(=O)(=O)N2CCN(Cc3cc(OC)c(OC)cc3OC)CC2)cc1,.,.,.,5%,1%,.,-1%,-27%
CCCc1cc(=O)[nH]c(Nc2ccc(Cl)cc2)n1,.,-3%[46.1 µM],.,.,-5%,?,-3%,-24%
COc1ccccc1C(=O)Oc1ccc(C(c2c(C)[nH][nH]c2=O)c2c(C)[nH][nH]c2=O)cc1,-6%,-3%[46.1 µM],-7.4%,.,.,?,.,-8%
O=C1C(=C(I)I)c2ccccc2-c2ccccc21,.,?,.,.,14µM*,?,.,18µM*
CCN(CC(=O)NCCCN1CCOCC1)S(=O)(=O)c1ccc(Cl)cc1,.,0%,.,-19%,-20%,1%[46.1 µM],2%,-1%
COc1ccc(C2/C(=C(/O)c3ccc(Cl)cc3)C(=O)C(=O)N2CCN2CCOCC2)c(OC)c1 (centres undefined),-7%,-7%,0.3%,-18%,5%,1%,3%,1%
COC(=O)c1cc(NC(=S)N2CCN(C(=O)C3CCCO3)CC2)cc(C(=O)OC)c1 (centres undefined),.,-6%,.,-1%,1%,1%,1%,-8%
O=C(Nc1nccs1)c1ccc2c(c1)C(=O)N(Cc1cccnc1)C2=O,.,0%,.,0%,15%,1%,0%,-1%
Cc1ccc(Cn2ccc(-c3cnc(-c4ccccc4)s3)n2)cc1,5%,?,-2.6%,-5%,-9%,-24%[46.1 µM],8%,-27%
CCCCn1c(N)c(N(CCOC)C(=O)c2sc3cc(F)ccc3c2Cl)c(=O)[nH]c1=O,.,16%,.,.,11%,-6%[46.1 µM],3%,-3%
Cc1nn(S(=O)(=O)c2ccc(Br)cc2)c(C)c1S(=O)(=O)N1CCCCCC1,8%,-10%[46.1 µM],-0.1%,.,.,.,.,-7%
COc1ccc(-n2nc3c(c2NC(=O)C(C)Cl)CSC3)cc1 (centres undefined),.,.,.,4%,4%,.,-7%,-8%
CC1(C)CC(=O)C=C(Nc2ccc([N+](=O)[O-])cc2)C1,.,-14%[46.1 µM],.,16%,-11%,17%[46.1 µM],3%,2%
NC1=NC(=Nc2cccc(Cl)c2)c2ccccc21,17%,?,-7.1%,17%,-30%,?,8%,-9%
Cc1ccc(CNc2ccc3c(c2)OCO3)cc1,25µM*,-22%,-2.8%,2.8µM*,-20%,?,.,15%
CCN1CCN(C(=O)CN(C)S(=O)(=O)c2ccc(Cl)cc2)CC1,-2%,28%,5.2%,-1%,-6%,7%,-5%,4%
NC(=O)c1c(NC(=O)c2c(F)cccc2F)sc2c1CCN(Cc1ccccc1)C2,.,.,.,-38%,-3%,.,1%,-18%
Cc1nc(C(=O)NNC(=O)Nc2ccccc2)cs1,.,23%,.,1%,3%,10%,2%,0%
CC(=O)Nc1cc(NC(C)=O)cc(C(=O)NC(C)(C)C)c1,-6%,-6%,2.5%,15%,-7%,1%,-13%,-6%
COc1ccccc1CN1C[C@@H]2C[C@@H](c3cccc(O)c3)N3CCC[C@@]23C1=O,.,-25%,.,5%,-20%,-7%[46.1 µM],2%,12%
O=C(COC(=O)c1ccc[nH]c1=O)Nc1cc(S(=O)(=O)N2CCCCC2)ccc1Cl,.,.,.,.,13%,6%[46.1 µM],2%,9%
COc1ccc(NC(=O)CSc2ncn[nH]2)c([N+](=O)[O-])c1,0%,16%,1.4%,11%,2%,0%,7%,.
N#CC1=C(N)N2C(=C(C#N)C1c1ccccc1)Sc1ccccc12 (centres undefined),13µM*,.,-2.4%,-7%,.,.,-4%,.
Cc1nonc1C1CCCN1C(=O)c1cc(COc2cccc(C(F)(F)F)c2)on1 (centres undefined),.,.,.,2%,-13%,.,-4%,-15%
O=C(C(Cc1ccccc1)n1cccc1)N1CCc2ccccc21 (centres undefined),-9%,.,-4.4%,-54%,-10%,.,-16%,0%
O=C(N/C(=C\c1ccc(Br)cc1)c1nc2ccccc2[nH]1)c1ccco1,-1%,?,0.8%,-48%,34%,-21%,-5%,90%[activator]
CCn1nc(C)c(CCN(C)C(=O)Nc2cc(OC)c(OC)c(OC)c2)c1C,5%,15%[46.1 µM],2.6%,.,.,.,.,2%
COC(=O)c1cc(=O)[nH]c(SCc2cccc(C)c2)n1,4%,2%,-0.4%,-7%,-8%,7%,-5%,-9%
Cn1c(=O)cc(SCC(=O)N2CCN(C3CCCCC3)CC2)c2ccccc21,.,21%,.,10%,-25%,-3%,.,-3%
O=C(O)c1ccccc1Sc1ncnc2sccc12,.,-13%[46.1 µM],.,-1%,9%,-1%[46.1 µM],-1%,19%
COc1ccc(C)cc1S(=O)(=O)n1cnc2ccccc21,.,.,.,-5%,-25%,.,6%,11%
CCOc1ccccc1CNC(=O)CCC(=O)N1CCSc2ccccc21,3%,-3%[46.1 µM],2.8%,.,.,.,.,-11%
Cc1cc(-c2ccccc2)nc(N(C)C)c1S(C)(=O)=O,.,.,.,-2%,0%,.,0%,0%
Cc1cccc(C)c1NCc1nnc(SCC(=O)Nc2nc(-c3ccccc3)cs2)n1-c1ccccc1,?,-2%,-1.0%,-2%,-2%,1%,-16%,-14%
CCN(CC)CCCN=C(N)N,.,.,.,0%,-12%,.,0%,-18%
COc1ccc(C(=O)N/C(=C\c2cn(C)c3ccccc23)C(=O)NCCCn2ccnc2)cc1OC,.,2%[46.1 µM],.,-10%,6%,?,.,4%
O=C(Nc1ccc2c(c1)OCCO2)c1ccc(Cl)c(S(=O)(=O)N2CCOCC2)c1,2%,37%[14.3 µM],-6.5%,-19%,12%,-4%,-1%,?
CN(C)c1ccc(NC(=O)CSc2nc3ccccc3c(=O)n2CC2CCCO2)cc1 (centres undefined),.,.,.,-5%,-1%,-12%[46.1 µM],0%,19%

# In a second layout: entries from further up
# The line under a structure holds: Cruzain inh noDet, Lassa entry inh, Cruzain Triton, NS1 function inh, RE007 growth inh, MARV entry inh, SARS PLP yeast, 2A StopGo
> O=C(O)c1ccccc1Sc1ncnc2sccc12
    ., -13%[46.1 µM], ., -1%, 9%, -1%[46.1 µM], -1%, 19%
> COc1ccc(C)cc1S(=O)(=O)n1cnc2ccccc21
    ., ., ., -5%, -25%, ., 6%, 11%
> CCOc1ccccc1CNC(=O)CCC(=O)N1CCSc2ccccc21
    3%, -3%[46.1 µM], 2.8%, ., ., ., ., -11%
> Cc1cc(-c2ccccc2)nc(N(C)C)c1S(C)(=O)=O
    ., ., ., -2%, 0%, ., 0%, 0%
> Cc1cccc(C)c1NCc1nnc(SCC(=O)Nc2nc(-c3ccccc3)cs2)n1-c1ccccc1
    ?, -2%, -1.0%, -2%, -2%, 1%, -16%, -14%
> CCN(CC)CCCN=C(N)N
    ., ., ., 0%, -12%, ., 0%, -18%
> COc1ccc(C(=O)N/C(=C\c2cn(C)c3ccccc23)C(=O)NCCCn2ccnc2)cc1OC
    ., 2%[46.1 µM], ., -10%, 6%, ?, ., 4%
> O=C(Nc1ccc2c(c1)OCCO2)c1ccc(Cl)c(S(=O)(=O)N2CCOCC2)c1
    2%, 37%[14.3 µM], -6.5%, -19%, 12%, -4%, -1%, ?
> CN(C)c1ccc(NC(=O)CSc2nc3ccccc3c(=O)n2CC2CCCO2)cc1 (centres undefined)
    ., ., ., -5%, -1%, -12%[46.1 µM], 0%, 19%

# Following part
SMILES,Cruzain inh noDet,Lassa entry inh,Cruzain Triton,NS1 function inh,RE007 growth inh,MARV entry inh,SARS PLP yeast,2A StopGo
COC(=O)C1=C(C(=O)c2ccccc2)C(c2cccs2)n2nnnc2N1 (centres undefined),4%,7%,2.0%,-3%,0%,4%,1%,-20%
COCCNC(=O)CSc1nc2cc(OC)c(OC)cc2c(=O)n1CCc1ccc(S(N)(=O)=O)cc1,.,3%[46.1 µM],.,.,11%,?,-1%,15%
COC(=O)Cc1c(C)c2ccc(O)c(CNCc3ccc(OC)c(OC)c3)c2oc1=O,.,19%[46.1 µM],.,7%,-29%,-19%[46.1 µM],1%,-13%
CSc1cc(CS(=O)(=O)c2ccccc2)nc(-c2ccccc2)n1,.,8%[46.1 µM],.,7%,-4%,-5%[46.1 µM],0%,-6%
OC(COc1ccc(OCC(O)CN2CCCCC2)cc1)CN1CCCCC1 (centres undefined),.,.,.,11%,-8%,.,10%,0%
CC(C)(C)C(=O)NC(=O)Nc1ccccc1C(F)(F)F,.,4%,.,3%,-3%,12%,2%,9%
O=C(NCCN1C(=O)S/C(=C\c2ccc(Cl)cc2Cl)C1=O)C1=COCCO1,.,-21%,.,.,-2%,?,1%,-18%
CCCCN(Cc1ccccc1)S(=O)(=O)c1cc(Br)cc2c1N(C(C)=O)CC2,-3%,17%[46.1 µM],-2.1%,.,.,?,.,-14%
Cc1cccc(C)c1OCC(=O)Nc1c(C(=O)c2ccc(Br)cc2)oc2ccccc12,0%,-17%[46.1 µM],-0.7%,.,.,20%[46.1 µM],.,-16%
CC(O)(C#CCN1CCCC1)c1ccccc1 (centres undefined),-5%,2%,0.7%,2%,-16%,16%,8%,.
COc1ccc(NC(=O)O/N=C2/CCCc3ccc(OC)cc32)cc1,10%,?,-3.3%,-7%,-5%,?,-18%,1%
COC(=O)NC1CSCC1OC(=O)c1ccc(Br)cc1 (centres undefined),1%,3%,-2.7%,-3%,3%,0%,4%,-2%
